Source: PubChem BioAssay
Shh pathway inh = Sonic Hedgehog pathway inhibition; Shh-LIGHT2 Gli-luciferase reporter, 30 h; inhibition, % (concentration not given with the values); 2.1% of 22,000 active;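 active = replicate mean of 65% or more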;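 note: pathway switched on by Shh-conditioned medium diluted 1 in 25 in low serum; 100 nL library stock added to about 40 µL; 0% = median of neutral wells and 100% = positive control level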
YB-1 expr inh = YB-1 expression inhibition; U2OS, qRT-PCR YB-1 vs CDIP delta delta Cp, 16 h; active compounds read high; zero = DMSO, each unit about twofold; delta delta Cp (YB-1 minus CDIP) (test concentration not listed); 0.37% of 30,000 active;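 active = delta delta Cp rounded down to an integer at or above 3, about 3 SD of DMSO wells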;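 note: higher means less YB-1 transcript or more CDIP transcript relative to DMSO; stock transfer was 100 nL into about 100 µL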
MITF inh = MITF inhibition; 0.28% of 37,000 active; inhibition, % (concentration not given with the values); TRPM1 promoter luciferase, luminescence, 24 h; AID 2240;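 active = most replicates at 85% or more, or half of them and the mean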;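 note: human melanocyte line stably carrying TRPM1 promoter luciferase reporter; 0% = vehicle wells and 100% = a positive control; the first replicate is given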
PD-1 reverse act = activators reversing PD-1 mediated T-cell inhibition; primary human CD4 T cells, PD-L1 beads, CellTiter-Glo 96 h; activation, % (concentration not given with the values); 29,000 tested, under 10 active;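 active = replicate mean of 50% or more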;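 note: 0% = median vehicle wells and 100% = positive control; 100 nL library stock added to about 50 µL; numbers are from one replicate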
* marks the source's active call; other numbers are inactive results; · = no result given.

SMILES,Shh pathway inh,YB-1 expr inh,MITF inh,PD-1 reverse act
C[C@@H]1CN([C@H](C)CO)C(=O)Cc2cc(NC(=O)Cc3ccccc3)ccc2O[C@@H]1CN(C)S(=O)(=O)c1cn(C)cn1,-92.0,0.532,-5.4,-2.6
C[C@@H]1CN([C@H](C)CO)C(=O)Cc2cc(NC(=O)C3CCCCC3)ccc2O[C@@H]1CN(C)Cc1ccccc1,-4.7,-0.241,3.3,0.8
C[C@H]1CN([C@@H](C)CO)C(=O)Cc2cc(NS(=O)(=O)c3ccc(Cl)cc3)ccc2O[C@H]1CN(C)C,-2.9,0.026,-14.9,·
C[C@H](CO)N1C[C@H](C)[C@H](CN(C)Cc2ccc(C(=O)Nc3ccccc3N)cc2)Oc2c(NC(=O)C3CC3)cccc2C1=O,·,0.237,30.4,-1.4
Cc1noc(C)c1S(=O)(=O)Nc1ccc2c(c1)C(=O)N([C@@H](C)CO)C[C@H](C)[C@H](CN(C)S(C)(=O)=O)O2,-14.2,0.2,-6.2,2.8
C[C@H](CO)N1C[C@H](C)[C@@H](CN(C)Cc2ccc3c(c2)OCO3)Oc2ccc(NC(=O)Nc3ccc(F)cc3)cc2C1=O,·,0.213,-12.5,0.6
COc1cccc(OC)c1C(=O)NC(=S)NCc1cccnc1,·,·,-0.5,0.0
Cc1ccccc1NC(=O)CCC(=O)O,-3.6,-0.285,-7.5,0.4
C[C@@H]1CN([C@@H](C)CO)C(=O)c2cc(NC(=O)Nc3ccccc3)ccc2O[C@@H]1CN(C)Cc1ccc(Oc2ccccc2)cc1,·,0.0424,11.7,-2.0
C[C@@H]1CN([C@@H](C)CO)C(=O)c2cccc(NC(=O)Nc3ccccc3)c2O[C@@H]1CN(C)C(=O)Nc1ccc2c(c1)OCO2,-7.0,-0.05,-2.4,·
Cc1ccc(OCC(=O)Nc2ccc(Cl)cc2)c(-n2nc3ccccc3n2)c1,·,·,45.0,-11.2
C[C@@H]1CN([C@H](C)CO)C(=O)c2cccc(NC(=O)C3CCCCC3)c2O[C@@H]1CN(C)CC1CCCCC1,0.8,-0.609,-3.6,1.5
CCn1c2c(c3cc(Br)ccc31)CCCC2=O,8.3,-0.0887,-8.0,-3.9
CC(NS(=O)(=O)c1ccc(Cl)cc1)C(=O)Nc1cccc(Br)c1 (centres undefined),·,·,13.9,-2.0
C[C@H]1CN([C@@H](C)CO)C(=O)c2cc(NC(=O)CCN3CCOCC3)ccc2O[C@H]1CN(C)Cc1ccc(Oc2ccccc2)cc1,·,0.201,-18.1,-1.4
C[C@@H]1CN([C@H](C)CO)C(=O)c2cccc(NS(=O)(=O)c3ccccc3)c2O[C@@H]1CN(C)S(=O)(=O)c1ccc(F)cc1,-52.3,0.133,-9.5,-0.9
CCOC(=O)CN(c1c(C)cccc1C)S(C)(=O)=O,·,·,-3.4,1.2
Cc1noc(C)c1S(=O)(=O)Nc1ccc2c(c1)C(=O)N([C@H](C)CO)C[C@H](C)[C@H](CN(C)C(=O)NC(C)C)O2,·,-0.347,5.5,2.9
O=C(COc1ccccc1)Nc1cccc(-c2nc3c(ccc4ccccc43)o2)c1,·,·,-13.6,-0.7
COc1ccc(NC(=O)Nc2ccc3c(c2)C(=O)N([C@H](C)CO)C[C@H](C)[C@H](CN(C)Cc2ccc(C(F)(F)F)cc2)O3)cc1,-1.7,0.0568,19.4,-0.3

The last 5 compounds of the part before are carried over, then new ones follow.
SMILES,Shh pathway inh,YB-1 expr inh,MITF inh,PD-1 reverse act
C[C@@H]1CN([C@H](C)CO)C(=O)c2cccc(NS(=O)(=O)c3ccccc3)c2O[C@@H]1CN(C)S(=O)(=O)c1ccc(F)cc1,-52.3,0.133,-9.5,-0.9
CCOC(=O)CN(c1c(C)cccc1C)S(C)(=O)=O,·,·,-3.4,1.2
Cc1noc(C)c1S(=O)(=O)Nc1ccc2c(c1)C(=O)N([C@H](C)CO)C[C@H](C)[C@H](CN(C)C(=O)NC(C)C)O2,·,-0.347,5.5,2.9
O=C(COc1ccccc1)Nc1cccc(-c2nc3c(ccc4ccccc43)o2)c1,·,·,-13.6,-0.7
COc1ccc(NC(=O)Nc2ccc3c(c2)C(=O)N([C@H](C)CO)C[C@H](C)[C@H](CN(C)Cc2ccc(C(F)(F)F)cc2)O3)cc1,-1.7,0.0568,19.4,-0.3
COc1ccc(-c2cc(-c3cccs3)nc(SC(C(=O)O)c3ccccc3)c2C#N)cc1 (centres undefined),·,·,29.8,-5.7
COc1ccc(S(=O)(=O)Nc2ccc3c(c2)CC(=O)N([C@H](C)CO)C[C@H](C)[C@H](CN(C)Cc2ccc(C(=O)Nc4ccccc4N)cc2)O3)cc1,·,-0.161,-0.3,0.8
CSc1ccc(C2C(C(=O)c3sc(C)nc3C)C(=O)C(=O)N2Cc2cccnc2)cc1 (centres undefined),·,·,-36.1,0.9
COc1ccc(NC(=O)Nc2ccc3c(c2)CC(=O)N([C@H](C)CO)C[C@H](C)[C@H](CN(C)S(=O)(=O)c2ccccc2)O3)cc1,-6.8,-0.0628,3.4,1.8
Cc1ccc(S(=O)(=O)Nc2ccc3c(c2)CC(=O)N([C@H](C)CO)C[C@H](C)[C@H](CN(C)C(=O)Nc2ccc(C(F)(F)F)cc2)O3)cc1,·,-0.101,1.5,·
COc1ccc(S(=O)(=O)Nc2ccc3c(c2)CC(=O)N([C@@H](C)CO)C[C@H](C)[C@@H](CN(C)Cc2ccccc2)O3)cc1,-16.8,0.824,4.1,-1.1
C[C@@H]1CN([C@H](C)CO)C(=O)c2cccc(NC(=O)Nc3ccccc3)c2O[C@H]1CN(C)Cc1ccncc1,3.8,-0.0163,-5.0,-1.9
C[C@@H]1CN([C@@H](C)CO)C(=O)c2cccc(NC(=O)Nc3cccc4ccccc34)c2O[C@H]1CN(C)C(=O)Nc1ccc2c(c1)OCO2,6.3,0.316,30.8,-4.2
N#CCCN(CC1CCCO1)C(=S)Nc1ccc(F)cc1 (centres undefined),-11.1,-0.00485,-23.7,0.0
COc1ccc(S(=O)(=O)Nc2ccc3c(c2)C(=O)N([C@H](C)CO)C[C@H](C)[C@@H](CN(C)C(=O)Nc2ccc(F)cc2)OCCCC[C@@H](C)O3)cc1,74.1*,-0.112,10.5,·
S=c1nc(C23CC4CC(CC(C4)C2)C3)[nH][nH]1,34.3,-0.456,-9.2,2.6
CCc1ccc(CCC(=O)Nc2ccc(C(=O)O)cc2)o1,·,·,-19.0,3.3
C[C@H](CO)N1C[C@H](C)[C@@H](CN(C)CC2CC2)Oc2c(NC(=O)CCCCCC(=O)Nc3ccccc3N)cccc2C1=O,·,-0.254,49.9,-1.5
CC(Oc1ccc(Br)cc1)C(=O)NCc1cccnc1 (centres undefined),·,·,-9.0,-2.0
CSc1ccccc1NC(=O)CSc1nnnn1-c1ccccc1C,·,·,17.1,0.3
Cc1nc(C(N)=NC(=O)c2ccc(OC(F)(F)F)cc2)cs1,-106.0,0.0758,-2.2,-0.2
CC(=O)c1ccccc1NS(=O)(=O)c1c(C)nn(-c2ccccc2)c1C,·,·,32.0,1.4
CC(C)NC(=O)N(C)C[C@@H]1Oc2ccc(NC(=O)Cc3ccccc3)cc2CC(=O)N([C@H](C)CO)C[C@H]1C,-10.4,-0.451,-0.4,1.1
Cc1noc(C)c1S(=O)(=O)N(C)C[C@@H]1Oc2ccc(NC(=O)CCC(F)(F)F)cc2CC(=O)N([C@H](C)CO)C[C@@H]1C,-13.3,0.0367,5.1,-1.5
C[C@@H]1CN([C@H](C)CO)C(=O)c2cccc(NC(=O)CCCCCC(=O)Nc3ccccc3N)c2O[C@H]1CN(C)CC1CCCCC1,·,-0.224,52.9,0.6
C[C@H](CO)N1C[C@H](C)[C@H](CN(C)C(=O)Nc2cccc3ccccc23)Oc2c(NC(=O)c3cnccn3)cccc2C1=O,23.4,-0.427,-8.2,1.6
C[C@H]1CN([C@@H](C)CO)C(=O)c2cccc(NS(=O)(=O)c3ccc(Cl)cc3)c2O[C@H]1CN(C)C(=O)NC1CCCCC1,16.9,0.0276,18.3,-1.3
C[C@@H]1CN([C@@H](C)CO)C(=O)c2cccc(NS(=O)(=O)c3cccs3)c2O[C@@H]1CN(C)Cc1ccncc1,-47.8,0.516,-8.2,2.1
N#C/C(=C\c1ccncc1)c1ccc(NC(N)=O)cc1,-11.7,-0.146,-66.1,-0.1
O=C(Nc1ccccc1)Nc1ccccc1,-56.4,-0.524,-9.7,-2.4
Cc1nn(C)c(C)c1NC(=O)CSc1nnc(-c2cccc(Br)c2)n1-c1ccccc1,·,·,7.5,-0.9
Cc1noc(C)c1S(=O)(=O)Nc1ccc2c(c1)C(=O)N([C@@H](C)CO)C[C@H](C)[C@H](CN(C)S(=O)(=O)c1cccs1)O2,·,-0.463,0.7,3.2
Cc1noc(C)c1NC(=O)Nc1ccc2c(c1)CC(=O)N([C@H](C)CO)C[C@H](C)[C@H](CN(C)S(=O)(=O)c1ccccc1)O2,-31.0,-0.146,-0.8,1.3
O=C1C(=O)N(Cc2ccco2)C(c2ccccc2)C1C(=O)c1cccs1 (centres undefined),·,·,-9.0,4.1
COc1ccc(S(=O)(=O)Nc2cccc3c2O[C@H](CN(C)C(=O)NC(C)C)[C@@H](C)CN([C@H](C)CO)C3=O)cc1,-1.0,0.0307,9.4,4.8
C[C@H]1CN([C@@H](C)CO)C(=O)c2cc(NS(=O)(=O)c3ccc(Cl)cc3)ccc2O[C@@H]1CN(C)C(=O)Nc1ccc2c(c1)OCO2,-14.1,-0.296,-7.5,1.4
CNC[C@H]1Oc2ccc(NC(=O)CCCN(C)C)cc2C(=O)N([C@@H](C)CO)C[C@H]1C,14.3,-0.0625,-3.9,0.6
O=c1cc(-c2ccc(O)cc2)oc2cc(O)cc(O)c12,-15.4,-0.0332,27.9,0.2
CC(C)NC(=O)N(C)C[C@H]1Oc2ccc(NC(=O)CCCCCC(=O)Nc3ccccc3N)cc2C(=O)N([C@@H](C)CO)C[C@H]1C,·,-0.154,-24.8,0.9
C[C@@H]1CN([C@@H](C)CO)C(=O)c2cccc(NC(=O)c3cnccn3)c2O[C@H]1CN(C)S(=O)(=O)c1cccs1,36.2,0.394,-7.6,·
Cc1cc(C(=O)Nc2cccc3c2O[C@@H](CN(C)Cc2ccc(-c4ccccc4)cc2)[C@@H](C)CN([C@@H](C)CO)C3=O)n(C)n1,-4.5,1.64,-23.9,-0.9
C[C@H]1CN([C@@H](C)CO)C(=O)c2cccc(NC(=O)C3CC3)c2O[C@@H]1CN(C)C(=O)Nc1ccc(F)cc1,12.0,-0.159,1.0,0.9
C[C@@H]1CN([C@H](C)CO)C(=O)c2cc(NC(=O)Cc3cn(C)c4ccccc34)ccc2O[C@H]1CN(C)C(=O)Nc1ccc(F)cc1,·,0.174,11.1,-0.6
COCCNc1nc2c(c(=O)n(C)c(=O)n2C)n1Cc1ccc(Cl)cc1Cl,·,·,12.4,-2.0
COc1cc2c(cc1NC(=O)c1nc3ncccn3n1)oc1ccccc12,·,·,-5.3,0.1
Cc1cc(Cc2ccc(Cl)cc2)c(=O)[nH]n1,-18.7,-0.29,-6.2,-0.8
C[C@@H]1CN([C@H](C)CO)C(=O)c2cc(NS(=O)(=O)c3cn(C)cn3)ccc2O[C@H]1CN(C)S(=O)(=O)c1ccc(F)cc1,·,0.349,-9.0,-1.1
CC(=O)NC1=NN(C(C)=O)C(c2cccc3ccccc23)N1C(C)=O (centres undefined),5.6,0.242,-8.5,1.8
C[C@@H]1CC[C@]2(C(=O)O)CC[C@]3(C)C(=CCC4[C@@]5(C)CC[C@@H](O)[C@](C)(C(=O)O)C5CC[C@]43C)C2[C@H]1C (some centres undefined),-7.7,1.29,-1.3,-0.3
CS(=O)(=O)N(CC(=O)Nc1ccc(F)c(Cl)c1)C1CCCCC1,·,·,2.3,0.5
C[C@@H]1CN([C@H](C)CO)C(=O)c2cccc(NC(=O)C3CCCCC3)c2O[C@H]1CN(C)Cc1ccc2c(c1)OCO2,-4.0,-0.0304,16.3,·
C[C@@H]1CCCCO[C@@H](CN(C)C(=O)CCC(F)(F)F)[C@@H](C)CN([C@H](C)CO)C(=O)c2cc(NC(=O)CCCN(C)C)ccc2O1,-21.6,0.0363,3.9,-0.8
CC(C)(O)[C@@H]1Cc2cc3ccc(=O)oc3cc2O1,-54.5,0.198,-7.7,·
CCC(C)C1NC(=O)C(CCC(=O)O)N(C)C(=O)C(C(C)C)N(C)C(=O)CNC(=O)C2CCCN2C(=O)C(Cc2ccccc2)NC(=O)C(C(C)CC)OC(=O)C(CCC(=O)O)N(C)C(=O)C(C(C)C)NC(=O)C2CCCCN2C1=O (centres undefined),100.0*,0.221,58.5,2.1
Cc1noc(C)c1S(=O)(=O)Nc1ccc2c(c1)C(=O)N([C@H](C)CO)C[C@H](C)[C@@H](CN(C)C(=O)Nc1ccccc1)OCCCC[C@@H](C)O2,-26.1,-0.113,-13.2,·
C=C(C(=O)O)C(CCCCCC)C(=O)O (centres undefined),-23.6,0.632,·,·

This is a subset; rates above refer to the full screens.
